High-throughput results from PubChem.
PABP polyA inh: blocks human PABP binding to poly(A) RNA; P11940; fluorescence polarization; inhibition, % at 35 µM; hit rate 1% among 290,000;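 active means 50% or more with normal probe brightness, or confirmed in later tests; inconclusive means above 50% with abnormal brightness, or retests that disagree; inactive means below 50% or failed in later tests; about a fifth of its hits are not listed in these tables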;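 further: calls also rest on retests at 20 µM and on dose response follow-up; controls were probe without protein and protein plus probe with vehicle; some compounds called inactive have numbers as strong as hits; many hits fall short of the cut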
Target sequence (P11940 whole entry, looked up): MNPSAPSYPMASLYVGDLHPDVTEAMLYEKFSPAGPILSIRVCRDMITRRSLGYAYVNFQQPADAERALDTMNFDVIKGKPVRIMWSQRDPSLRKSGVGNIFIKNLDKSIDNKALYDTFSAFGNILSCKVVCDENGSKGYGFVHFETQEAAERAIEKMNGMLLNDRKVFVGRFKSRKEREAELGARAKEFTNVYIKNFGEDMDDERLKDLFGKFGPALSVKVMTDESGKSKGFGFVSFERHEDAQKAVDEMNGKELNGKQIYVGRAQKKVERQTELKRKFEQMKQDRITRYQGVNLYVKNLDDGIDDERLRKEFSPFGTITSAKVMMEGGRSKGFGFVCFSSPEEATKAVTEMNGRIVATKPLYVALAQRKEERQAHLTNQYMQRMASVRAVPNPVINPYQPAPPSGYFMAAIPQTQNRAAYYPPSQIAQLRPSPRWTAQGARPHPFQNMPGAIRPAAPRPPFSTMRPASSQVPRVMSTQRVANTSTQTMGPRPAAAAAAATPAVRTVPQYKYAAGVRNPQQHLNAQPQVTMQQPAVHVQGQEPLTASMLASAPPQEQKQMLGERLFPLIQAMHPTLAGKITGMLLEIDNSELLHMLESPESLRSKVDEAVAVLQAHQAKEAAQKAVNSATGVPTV
eIF4H inh: inhibitors of RNA binding by human eIF4H; hit rate 0.94% among 290,000; inhibition, % at 35 µM; AID 2012; Q15056; eIF4H fluorescence polarization binding assay;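 active means 50% or more with normal probe brightness, or confirmed in later tests; inconclusive means above 50% with abnormal brightness, or retests that disagree; inactive means below 50% or failed in later tests; about a fifth of its hits are not listed in these tables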;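 further: calls also rest on retests at 20 µM and on dose response follow-up; 0% = protein and probe with vehicle and 100% = probe without protein; strong numbers were not always called active; many hits fall short of the cut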
HIV Env fusion: HIV envelope-mediated fusion inhibition. AID 651610. inhibition, % at 12.3 µM. HeLa-JRFL Env/CEM21 cell fusion, luciferase. hit rate 1.1% among 360,000;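 active means mean replicate inhibition score of at least 50 and every replicate individually at or above 50; inconclusive means only one of the two criteria met; inactive means mean below 50 and not all replicates reaching 50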;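 further: 0% = plate neutral controls and 100% = maraviroc near 300 nM; one replicate is shown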
CSC inhib: cancer stem cell inhibition. cancer stem cell-like cells viability, luminescence. inhibition, % at 7.5 µM. hit rate 1.1% among 300,000. AID 2717;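 active means mean at 75% or more and at least half the replicates too; inconclusive means mean and replicates disagree; tested in HMLE shEcad cells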;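 further: 0% = median of negative and 100% = median of positive control wells; the first replicate is given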
Rce1 inh: blocks yeast Ras-converting enzyme; Q03530; hit rate 0.27% among 290,000; yeast membranes, quenched prenylated peptide cleavage fluorescence; calls only;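 active means fall in fluorescence gain of 50% or more versus controls, with final raw signal at or below 3038400; inconclusive means same 50% fall but final raw signal above 3038400; inactive means fall in fluorescence gain under 50%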;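 further: plate controls were neutral control wells for no effect and wells lacking membranes for full effect; tested at 10 µM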
Target sequence (Q03530 whole entry, looked up): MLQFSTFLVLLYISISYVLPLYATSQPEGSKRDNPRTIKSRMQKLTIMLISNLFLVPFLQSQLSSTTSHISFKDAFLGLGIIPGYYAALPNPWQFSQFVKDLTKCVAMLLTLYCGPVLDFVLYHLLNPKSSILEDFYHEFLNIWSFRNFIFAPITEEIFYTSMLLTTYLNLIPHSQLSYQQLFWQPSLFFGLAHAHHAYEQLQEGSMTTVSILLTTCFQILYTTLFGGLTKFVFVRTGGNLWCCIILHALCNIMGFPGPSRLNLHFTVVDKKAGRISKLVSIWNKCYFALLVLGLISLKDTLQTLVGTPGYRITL
UUG fidelity: modulators of start codon recognition fidelity in yeast | AID 602363 | hit rate 0.13% among 350,000 | S. cerevisiae UUG-firefly luciferase reporter, luminescence/redox ratio | activity score, % at 18.7 µM;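 active means replicate mean at a twofold rise or more, about +100% in these data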;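 further: firefly luciferase made from a UUG start codon reports start codon fidelity; reporter light over untreated wells divided by growth signal over untreated wells; some hits fall short of that in this replicate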
MT1-MMP act inh: MT1-MMP (human) activation inhibition; hit rate 0.061% among 360,000; GFP/RFP ratio change, % at 20 µM; P50281; HT1080 RFP-PRO-GFP cells, GFP/RFP ratio fluorescence, overnight; percent of plate control window, DMSO zero;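 active means GFP/RFP ratio change of at least 30% with cell ATP level not reduced by more than half and red fluorescence within 50% of control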; further: strong numbers were not always called active
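Compound: 20 µM single dose, 1% DMSO / System: HT1080 RFP-PRO-GFP cells / Controls: DMSO and RFP-L50D-GFP cell wells / Read-out basis: GFP/RFP fluorescence ratio / Schedule: overnight compound exposure at 37 °C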
eIF4H inh retest: recorded beside eIF4H inh, whose call it bears; inhibition, %; compound at 20 µM; confirmation average;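 mean of two retest wells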
PABP polyA inh retest: also measured in PABP polyA inh; calls as there; inhibition, %; compound at 20 µM; confirmation repeats;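 mean of two retest wells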
MT1-MMP act inh RFP: also measured in MT1-MMP act inh; calls as there; RFP signal change, %; measured here: RFP expression control read;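 0 = vehicle wells; hits needed this value within 50% of zero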
* hit, by the source's call; i = inactive; ? = inconclusive; . = not tested or not shown. A portion of the library; count on the stated rates, not on these rows.

SMILES	PABP polyA inh	eIF4H inh	HIV Env fusion	CSC inhib	Rce1 inh	UUG fidelity	MT1-MMP act inh	MT1-MMP act inh RFP	others
COc1ccc(N2C(=O)CSC23C(=O)Nc2ccccc23)cc1OC (stereo unspecified)	-2	3	5	-9	i	-8	-3	0
CC[C@]12c3[nH]c4ccc(Cl)cc4c3CCN1C(=O)[C@@H](CC(=O)NC/C=C(\C)CCC=C(C)C)C[C@@H]2C(=O)N1CCN(C(=O)C2CC2)CC1	.	.	11	.	.	-4	-23	-31
CC(Sc1nnc(C(F)(F)F)n1C)C(=O)Nc1ccc(S(N)(=O)=O)cc1 (stereo unspecified)	-7	-2	-18	-8	i	-10	-4	1
Cc1ccc(NC(=O)N2CCc3ccccc32)cc1C	-3	-6	-206	18	i	.	6	8
O=C(O)COc1ccc(/C=N/n2cnc3scc(-c4cccs4)c3c2=O)cc1	2	3	-34	-21	.	-6	1	6
CNc1cc(-c2ccc(CC#N)cc2)ncn1	.	.	-26	.	.	-14	2	8
CC(C)c1cc(=O)n2c(nc3ccccc32)[nH]1	-10	-4	-6	-8	i	-21	-4	-5
Cc1ccc(C(=O)Nc2ccn(C)n2)cc1	.	.	-20	.	.	-17	0	-2
NC(=O)C1c2ccccc2CSc2ccccc21 (stereo unspecified)	8	-5	.	-10	i	-7	-1	3
Cc1ccc(C)c(N(C(=O)c2csnn2)C(C(=O)NC2CCCC2)c2cccnc2)c1 (stereo unspecified)	2	-4	0	-17	i	-18	4	9
CN=c1scc(-c2ccc(Br)cc2)n1C	-5	5	.	6	i	4	4	6
COc1ccc(N(C(=O)c2ccco2)C(C(=O)NC2CCCC2)c2ccc(N(C)C)cc2)cc1OC (stereo unspecified)	90	12	.	1	i	11	6	4	eIF4H inh retest=-2;PABP polyA inh retest=1
CSc1ccc(CNc2ccc(C)c(C)c2)cc1	-1	-4	.	4	i	-11	5	-2
COC(=O)C1=NNC2C(=O)N(c3ccc(C)cc3)C(=O)C12 (stereo unspecified)	11	1	2	-3	i	.	-1	5
O=C(CCSCCC(=O)NCc1ccccc1)NCc1ccccc1	0	-1	-6	-6	i	.	-1	2
Cc1c(C(=O)O)cccc1-c1ccc(C=O)o1	-1	9	-20	.	i	-19	1	4
CS(=O)(=O)N(CC(=O)NCCSCc1ccccc1)c1ccccc1F	-2	-3	12	-7	i	-2	0	-3
O=C(OCc1c(-c2ccccc2)ncc2ccccc12)c1cccc(Br)c1	.	.	-8	34	.	-2	2	-7
Cc1noc(C)c1S(=O)(=O)N1CCC(C(=O)NCCN2CCC(C)CC2)CC1	-11	-14	-27	-8	i	-16	-3	-2
Cc1ccc(OCCOCCN2CCN(C)CC2)c(C(C)(C)C)c1	20	18	23	59	.	-18	1	-5
CCOc1ncccc1C(=O)N(C)CC(=O)Nc1ccc(F)cc1	-5	-12	-21	7	i	-9	2	-1
CC1CC(C(O)c2ccccn2)C(=O)C(C(O)c2ccccn2)C1 (stereo unspecified)	.	.	4	.	.	-4	1	1
COCc1cc(C)c2c(N)c(C#N)sc2n1	2	1	.	-3	i	-17	0	1
O=C(CN1CCN(c2ccccn2)CC1)Nc1ccccc1	2	-10	.	-18	i	-12	1	2
CSc1ccccc1NC(=O)c1cc(-c2cccs2)on1	-15	-1	-33	-7	i	-13	1	2

Next section.
SMILES	PABP polyA inh	eIF4H inh	HIV Env fusion	CSC inhib	Rce1 inh	UUG fidelity	MT1-MMP act inh	MT1-MMP act inh RFP	others
Cc1ccc(C)c(NC(=O)CN(C)C(C)C(=O)N2CCCC2)c1 (stereo unspecified)	.	.	-14	11	.	-16	-1	4
CC(=O)NCCC(=O)N(C)CC1CCN(CCc2cccc(C(F)(F)F)c2)CC1	-7	0	-2	10	i	-11	-3	-1
CCCCN1C(=O)C(CC(=O)NCC2CCCCC2)CC(C(=O)N(C)C)=C1C (stereo unspecified)	.	.	-39	.	.	-15	-1	3
CCn1nc(C(=O)Nc2ccc3c(c2)OCCO3)c2ccccc2c1=O	.	.	-38	.	.	-3	-2	-1
CCCC(=O)Nc1nn(C)c2nc3cc(C)ccc3cc12	-2	7	.	1	i	.	.	.
O=c1c(N2CCOCC2)nsnc1N1CCOCC1	12	5	.	2	i	5	-2	3
Cc1nn(C(=O)c2ccco2)c(C)c1Br	-6	-7	.	17	i	-11	2	5
CCC[C@H]1COCCS(=O)(=O)N1Cc1ccccc1	0	-3	-40	6	i	2	9	8
COc1ccc(C(=O)NNC(=S)NC(=O)c2ccc(F)cc2)cc1Br	.	.	-4	33	i	-14	4	-6
NC(=O)C1CCN(C(=O)c2ccc3c(c2)S(=O)(=O)c2ccccc2C3=O)CC1	-8	-7	-9	4	i	-4	2	4
CCc1ccc(NC(=O)c2ccccc2SC)cc1	2	-3	-11	5	i	-16	1	-1
COc1cccc(CN(C(=O)c2ccco2)C(C(=O)NC2CCCC2)c2cccnc2)c1 (stereo unspecified)	-3	5	.	-1	i	-11	0	2
Cc1ccc(S(=O)(=O)N2CCC(=O)N(CCOCc3cccc(F)c3)CC2)cc1	-4	-4	11	-2	i	-17	4	-1
CCOc1cccc(/C=N/NC(=O)c2cc(C3CC3)[nH]n2)c1O	-10	-9	23	128*	i	-15	3	-4
COc1ccc(CNC(=O)CN(C(=O)CCC(=O)Nc2ccccn2)c2cccc(C)c2)cc1	1	0	7	12	i	.	-1	-4
O=S(=O)(NC1=NCCCCC1)c1ccc2ccccc2c1	-5	-3	-12	-13	i	.	3	1
Cc1ccc(S(=O)(=O)NC2=NCN(CCN3CCOCC3)CN2)cc1	-4	-11	-7	7	i	-8	3	3
C=CCc1cc(C)ccc1OCCCC(C(=O)OCC)C(=O)OCC	-1	-7	13	-10	i	-3	1	1
CC(=O)N1CCN(S(=O)(=O)c2cccc(C(=O)OCc3ccc(F)cc3)c2)CC1	.	.	24	.	.	-4	3	-14
CCCC1C2CN(C(C)C)CC=C2C(C#N)=C(N)C1(C#N)C#N (stereo unspecified)	?	?	16	13	i	-8	.	.
CC1S/C(=N/N=C/c2ccco2)NC1=O (stereo unspecified)	-9	2	.	-7	i	-13	0	3
CCn1c(-c2cc(OC)c(OC)c(OC)c2)n[nH]c1=S	-7	1	-74	.	i	-5	-11	-19
O=C(O)CSc1nnc(COc2cccc3cccnc23)n1-c1cccc(C(F)(F)F)c1	-10	-4	3	-6	i	.	.	.
Cc1ccc(NS(=O)(=O)c2c(C)[nH]c(C)c2C(=O)N2CCCCC2)c(Cl)c1	-1	-2	9	-11	i	-19	-1	-1
CCOC(=O)C1=C(COC(=O)C2CC(=O)N(c3ccc(C)cc3)C2)NC(=O)NC1C (stereo unspecified)	.	.	-17	-12	i	-11	-3	3

(list continues)
SMILES	PABP polyA inh	eIF4H inh	HIV Env fusion	CSC inhib	Rce1 inh	UUG fidelity	MT1-MMP act inh	MT1-MMP act inh RFP	others
CCCCNc1nnc(SCC(=O)c2c(N)n(C3CC3)c(=O)[nH]c2=O)s1	.	.	26	11	.	-19	-2	-1
O=C(COC(=O)c1ccc[nH]c1=O)NCCC1=CCCCC1	.	.	19	-8	.	-27	1	4
COC(=O)c1c(NC(=O)COC(=O)CNC(=O)c2ccco2)sc(C)c1C	-15	-3	-24	-14	i	.	1	4
N/C(=N\O)c1cn(Cc2ccccc2Cl)c2ccccc12	53	-8	-8	-8	i	-15	3	1	eIF4H inh retest=24;PABP polyA inh retest=1
COc1ccc(C(=O)N2CCCCC2)cc1S(=O)(=O)Nc1ccccc1	1	0	.	-4	i	1	7	0
CCCn1nc(C(=O)NCCN2CCOCC2)c2ccccc2c1=O	0	-4	-65	7	i	-14	7	1
S=C(c1ccc2c(c1)OCO2)N1CCCCCC1	-1	2	-200	-14	i	-22	2	-7
CC(C)=CCCC1=CCC(/C=N/NC(N)=O)C(C)C1 (stereo unspecified)	9	2	.	-8	i	-20	2	-3
COc1ccc(N=Cc2cccc(C)c2O)cc1Cl	-9	-1	.	13	i	.	0	2
O=c1[nH]c2ccccc2nc1/C=C/c1ccccc1	29	44	-53	-18	i	.	-16	-8
CC1(CC(=O)N/N=C/c2ccc(OCc3ccc(Cl)cc3Cl)cc2)OCCCO1	2	-2	.	29	i	-49	-7	-5
CCN(CC)S(=O)(=O)c1ccc(OC)c(NC(=O)CSc2cc(Cl)ccc2Cl)c1	-3	-4	-2	16	i	7	-2	-4
CCCN(CCC)Cc1c(C(=O)N/N=C/c2ccncc2)nnn1-c1nonc1N	-6	-10	-3	-7	i	-11	2	-1
COc1ccc(CCNC(=O)C2CC(=O)N(c3ccc(C)cc3)C2)cc1 (stereo unspecified)	-2	-4	8	-15	i	-13	0	2
COc1ccc(OC)c2[nH]c(=O)c(CCNC(=O)c3cccs3)cc12	-9	-2	5	-14	i	.	5	6
O=C(CC[C@H]1O[C@@H](n2cnc3c(NC(=O)c4ccccc4)ncnc32)[C@H](O)[C@@H]1O)NCc1ccc(OC(F)(F)F)cc1	.	.	-4	.	.	-18	3	5
CCOC(=O)c1ccc(NC(=O)CSc2nc3sc(C(=O)O)c(C)c3c(=O)[nH]2)cc1	-12	-2	10	-4	i	.	6	5

Filtered by structure, the entries above containing fluorine.
SMILES	PABP polyA inh	eIF4H inh	HIV Env fusion	CSC inhib	Rce1 inh	UUG fidelity	MT1-MMP act inh	MT1-MMP act inh RFP	others
CC(Sc1nnc(C(F)(F)F)n1C)C(=O)Nc1ccc(S(N)(=O)=O)cc1 (stereo unspecified)	-7	-2	-18	-8	i	-10	-4	1
CS(=O)(=O)N(CC(=O)NCCSCc1ccccc1)c1ccccc1F	-2	-3	12	-7	i	-2	0	-3
CCOc1ncccc1C(=O)N(C)CC(=O)Nc1ccc(F)cc1	-5	-12	-21	7	i	-9	2	-1
CC(=O)NCCC(=O)N(C)CC1CCN(CCc2cccc(C(F)(F)F)c2)CC1	-7	0	-2	10	i	-11	-3	-1
COc1ccc(C(=O)NNC(=S)NC(=O)c2ccc(F)cc2)cc1Br	.	.	-4	33	i	-14	4	-6
Cc1ccc(S(=O)(=O)N2CCC(=O)N(CCOCc3cccc(F)c3)CC2)cc1	-4	-4	11	-2	i	-17	4	-1
CC(=O)N1CCN(S(=O)(=O)c2cccc(C(=O)OCc3ccc(F)cc3)c2)CC1	.	.	24	.	.	-4	3	-14
O=C(O)CSc1nnc(COc2cccc3cccnc23)n1-c1cccc(C(F)(F)F)c1	-10	-4	3	-6	i	.	.	.
O=C(CC[C@H]1O[C@@H](n2cnc3c(NC(=O)c4ccccc4)ncnc32)[C@H](O)[C@@H]1O)NCc1ccc(OC(F)(F)F)cc1	.	.	-4	.	.	-18	3	5
